# Source: PubChem BioAssay
# GLA inh pH 4.5 – inhibitors of human alpha-galactosidase A at pH 4.5 | P06280 | purified enzyme, 4-MU-alpha-Gal fluorescence, pH 4.5 | activity change, negative = inhibition, % at 105 µM | 230,000 tested, under 10 active; inconclusive = small, poorly fitted or top-dose-only inhibition, or a rising curve; inactive = flat fitted curve, though single readings scatter; no compound was filed as active;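 also: 0% = full activity with enzyme and -100% = basal without enzyme; dose as in the result columns while the protocol names 77 µM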
# Rango complex inh – prevents formation of the Rango-importin beta complex. Q14974. Rango CFP/YFP FRET sensor + importin beta, 45 min. Potency, µM (top dose mostly 92.2 µM), for the others: at the highest dose inhibition of complex formation. 0.031% of 340,000 active; active = rising FRET ratio curve, often small or poorly fitted; inconclusive = mostly compound fluorescence or quenching in the first reads; inactive = flat curves in all reads;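 also: potency is read from the fitted curve at half-maximal effect; 0% = DMSO wells and 100% = buffer wells lacking importin beta; nearly all actives have a fitted effect of over 15% in size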
# Target sequence (Q14974 whole entry, looked up): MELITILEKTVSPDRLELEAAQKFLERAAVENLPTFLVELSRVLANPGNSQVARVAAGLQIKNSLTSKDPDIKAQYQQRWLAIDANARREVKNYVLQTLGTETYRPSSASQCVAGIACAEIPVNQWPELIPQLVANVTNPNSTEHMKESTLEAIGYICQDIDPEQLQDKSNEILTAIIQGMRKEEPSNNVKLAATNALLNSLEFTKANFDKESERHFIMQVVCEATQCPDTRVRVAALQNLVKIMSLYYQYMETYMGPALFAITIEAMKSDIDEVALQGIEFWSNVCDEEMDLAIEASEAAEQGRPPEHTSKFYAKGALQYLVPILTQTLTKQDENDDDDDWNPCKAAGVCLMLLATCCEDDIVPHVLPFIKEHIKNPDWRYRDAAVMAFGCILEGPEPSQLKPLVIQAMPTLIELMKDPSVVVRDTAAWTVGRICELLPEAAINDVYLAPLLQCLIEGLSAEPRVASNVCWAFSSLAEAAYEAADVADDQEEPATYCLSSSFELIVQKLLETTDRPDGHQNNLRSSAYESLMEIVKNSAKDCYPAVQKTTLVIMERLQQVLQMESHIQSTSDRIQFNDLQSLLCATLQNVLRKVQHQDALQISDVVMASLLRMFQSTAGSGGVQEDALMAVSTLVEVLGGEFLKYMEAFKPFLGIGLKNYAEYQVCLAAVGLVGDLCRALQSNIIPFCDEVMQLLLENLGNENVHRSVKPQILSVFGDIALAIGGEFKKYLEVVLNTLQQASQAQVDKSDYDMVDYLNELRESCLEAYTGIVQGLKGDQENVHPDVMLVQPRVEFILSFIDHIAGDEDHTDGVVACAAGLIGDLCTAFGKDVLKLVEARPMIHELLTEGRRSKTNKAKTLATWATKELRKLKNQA
#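 FRET biosensor (snurportin 1 IBB flanked by EYFP and cerulean), 50 nM, with compound 5 min, then 0.125 microM importin beta in PBS, 1 mM DTT, 0.02% Tween-20, 0.1% BSA. CFP/YFP ratio read after 45 min at room temperature; pre-read flags interference.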
# Rango dissoc inh – inhibitors of RanGTP-induced Rango-importin beta complex dissociation | O95149+P62826 | Biochemical FRET Rango-importin beta, RanGTP-induced dissociation | Potency, µM (doses to about 46.1 µM), for inactives: top-dose activity change, negative = inhibition | 0.071% of 340,000 active | AID 540253; active means falling FRET ratio curve, often poorly fitted, with flat reads before Ran was added; inconclusive means other falling curves, or compound fluorescence or quenching; inactive means flat or rising ratio curve;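 also: potency is read from the fitted curve at half-maximal effect; % of control where 0% means no effect; nearly all actives have a fitted effect of over 45% in size; -100% = wells without RanGTP and RCC1; the record marks most hits as doubtful in a second field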
#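 Compounds preincubate 5 min with complex of recombinant Rango and importin beta in PBS with 1 mM DTT. Ran (0.6 uM) loaded with 2 mM GTP plus 0.2 uM RCC1 starts dissociation; FRET is recorded 45 min later.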
# miR-21 FLuc – miR-21 reporter, rising signal; Potency, µM (doses to about 38.3 µM), for the others: top-dose reporter change, positive = more light; HeLa miR-21 FLuc reporter, luciferase, 48 h; 340,000 tested, under 10 active; AID 2288; active = well fitted rising curve with a large enough effect; inconclusive = small, poorly fitted or top-dose-only effect; inactive = no such curve, though single readings can be large or run the other way;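 also: % of control where 0% means no effect; miR-21 action dims this reporter so a rising signal means less miR-21 action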
#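 Compounds were titrated across several concentrations (up to approximately 40 uM) and incubated 48 hours with HeLa miR-21-FLuc reporter cells (miR-21 target sequence downstream of FLuc, endogenous miR-21). Readout was firefly luciferase luminescence after lytic detection reagent.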
# * hit, by the source's call; ? = inconclusive; . = no result given; & = joins results of further samples. These rows are one share of the data (hit frequency here may not be typical).
nr	mol	Rango dissoc inh	Rango complex inh	GLA inh pH 4.5	miR-21 FLuc
1	CC(C)CNc1oc(-c2ccccc2Cl)nc1C#N	-2.7%	0.4%	-12.2	-39.3%
2	COc1cc(OC)cc(-c2oc(=O)c3cc(OC)c(OC)cc3c2C(F)(F)F)c1	0.9%	5.1%	.	.
3	CCN1CCN(C(=O)c2cc(S(=O)(=O)N3CCCCC3)ccc2Cl)CC1	19.9%	-0.6%	.	2.0%
4	COc1cccc(N2CC(C(=O)OC(C)C(=O)c3ccccc3)CC2=O)c1 (configuration not stated)	7.6%	-5.4%	-5.0	-2.7%
5	Cc1cccc(C(=O)OC(C)C(=O)NC2CCCc3ccccc32)c1O (configuration not stated)	-0.2%	2.9%	.	.
6	CC(C)NC(=O)CN1C(=O)c2ccccc2S1(=O)=O	2.4%	1.2%	-7.6	1.2%
7	C/C(=N\NC(=O)COc1ccccc1)c1ccc(O)cc1	7.7%	-0.4%	-9.4	-24.5%
8	CCn1cc(CN2CCC(n3nccc3NC(=O)c3ccc(OC)cc3)CC2)cn1	7.5%	-1.8%	.	2.0%
9	CCC(=O)N/N=C(\C)CC(=O)Nc1cccc([N+](=O)[O-])c1	34.9%	0.3%	5.3	-8.9%
10	COc1ccc(OC)c(S(=O)(=O)N2CCCCC2C(=O)N2CCN(c3ccccn3)CC2)c1 (configuration not stated)	-1.5%	4.1%	-3.3	-0.1%
11	C1CCc2nnc(C3CC3)n2CC1	-1.4%	4.2%	-11.1	-3.1%
12	CCOC(=O)C(=O)c1c(-c2ccccc2)nc2ccccn12	-9.2%	-0.2%	2.4	7.1%
13	CC1(C)Cc2c(ccc3ccccc23)C2=C(C(=O)N3CCCC3)C(=O)C(=O)N21	2.9%	-3.5%	-1.2	2.4%
14	CCCCCSc1nc2c(c(=O)[nH]c(=O)n2C)n1C(C)C	24.8%	0.5%	0.3	-17.4%
15	CC1CCN(C(=O)COC(=O)c2cc(=O)[nH]c3ccccc23)CC1	-25.2%	2.9%	.	.
16	CCOC(=O)N1CCN(C(=O)c2cc(COc3ccc(OC)cc3Cl)on2)CC1	-8.8%	-4.5%	.	-17.9%
17	COc1ccc(C(C(=O)NC2CCCC2)N(C(=O)c2snc(C(N)=O)c2N)c2ccccc2OC)cc1OC (configuration not stated)	6.5%	-3.4%	.	0.3%
18	O=[N+]([O-])c1ccc2[nH]ncc2c1	-9.8%	1.4%	-7.6	-1.2%
19	Cc1cc(C)c2nc(N(CCN(C)C)C(=O)c3ccc4ccccc4c3)sc2c1	-2.8%	-2.3%	.	-6.9%
20	C/C(N)=C(/C#N)C(=O)CSc1nc(C2CCCCC2)n(-c2ccccc2)n1	9.6%&1.2%	0.0%&-0.2%	-3.9	9.3%

# Further results:
nr	mol	Rango dissoc inh	Rango complex inh	GLA inh pH 4.5	miR-21 FLuc
21	O=C(c1ccccc1)c1cccn1CC(=O)N1CCN(c2ccccc2)CC1	-6.5%	-4.8%	1.7	-5.8%
22	CCOC(=O)/C(=N\Nc1ccccc1Cl)N(C)C1CCCCC1	-14.0%	-0.4%	-1.1	-5.8%
23	CN(CCOc1ccccc1)C(=O)c1ccc2c(c1)OCO2	-11.7%	-0.9%	.	.
24	COc1ccc(F)cc1S(=O)(=O)NCC1CCCO1 (configuration not stated)	-3.4%	3.7%	.	0.3%
25	CCOC(=O)Cn1nc(C)c(NC(=O)COc2ccccc2)c1C	3.3%	-1.3%	0.5	2.6%&-1.3%
26	CCN(CC)CCCNC(=S)N1CCN(c2nc3ccccc3n2CC)CC1	-3.0%	-1.3%	.	-1.6%
27	Cn1c(COc2nnc(-c3ccc(Cl)cc3)c3ccccc23)nc2ccccc21	1.4%	1.3%	3.4	-2.9%
28	Cc1ccc(CNC(=O)C2CC(=O)OC23CCCC3)c(C)c1 (configuration not stated)	-1.0%	4.8%	4.2	-7.5%
29	CCC(C)(C)n1nnnc1C(c1ccc(C)cc1)N1CCSCC1 (configuration not stated)	3.5%	0.9%	-11.5	-0.1%
30	CCN(CC)c1ccc(NC(=O)COc2ccc(-n3cnnn3)cc2)cc1	-8.1%	1.0%	.	.
31	CCOC(=O)N1CCC2(CC1)C(C#N)=C(N)OC1=C2C(=O)CC(C)(C)C1	1.3%	?	3.1	-0.2%
32	CCOC(=O)C1=C(CS(=O)(=O)c2ccccc2)NC(=O)NC1c1ccccc1OCC (configuration not stated)	25.7%	-2.6%	-8.0	-2.7%
33	O=S(=O)(NCCCN1CCOCC1)c1ccc(Cl)cc1	8.4%	0.2%	.	-0.4%
34	Nc1c(C(=O)NCc2ccco2)nnn1Cc1ccccc1	-11.9%	0.0%	6.3	-15.9%
35	O=C(Nc1nc2ccccc2c2nc3ccccc3n12)c1ccc(F)cc1	.	.	-19.7	-2.5%
36	CCC(C)(C(=O)NC1CCCC1)N(C(C)=O)c1ccc(C)cc1 (configuration not stated)	16.1%	0.2%	5.8	-1.3%
37	Cc1ccnc(NC(=O)Nc2cccc(F)c2)c1	-2.4%	0.0%	8.8	-32.8%
38	O=C(O)C1(c2ccccc2)CCN(S(=O)(=O)c2ccc(Cl)s2)CC1	-14.3%	-7.5%	3.6	2.5%
39	COC1=C(N)C(=O)c2nc(C)ccc2C1=O	-14.3%	0.4%	.	.
40	CCCc1c(O)nc(SC2CC(=O)N(c3ccc(C)c(Cl)c3)C2=O)[nH]c1=O (configuration not stated)	-16.2%	-4.5%	.	.

# Next section:
nr	mol	Rango dissoc inh	Rango complex inh	GLA inh pH 4.5	miR-21 FLuc
41	O=C(CN1CCCC(O)C1)N1c2ccccc2Sc2ccc(C(F)(F)F)cc21 (configuration not stated)	6.8%	2.5%	-11.1	-17.0%
42	CCOC(=O)C1=C(c2ccccc2)N=c2s/c(=C\c3ccc(O)cc3)c(=O)n2C1c1cccs1 (configuration not stated)	?	?	-24.9	16.0%
43	CCc1ccc(NC(=O)N(CCOC)C2CCN(C(C)=O)CC2)cc1	6.6%	6.2%	0.4	-7.6%
44	COc1ccc(NC(=O)CSc2nnc(CNC(=O)c3ccco3)n2-c2ccccc2OC)cc1	1.4%	0.6%	-1.5	0.0%
45	Brc1ccc(CSc2nccn2-c2ccccc2)cc1	9.2%	0.1%	0.7	-12.4%
46	Cc1ccc(NC(=O)CN2CCN(Cc3ccccc3)CC2)cc1Cl	9.1%	4.3%	.	.
47	Cc1ccc(CNC(=O)C(OC(=O)c2cccs2)C(C)C)cc1 (configuration not stated)	0.8%	-0.3%	.	12.1%
48	CN1CCN(c2ccc(NC(=O)c3ccc(C(F)(F)F)cc3)cn2)CC1	0.4%	2.1%	6.3	7.1%
49	CC(=O)Nc1ccc(S(=O)(=O)N[C@@H](C)C(=O)NC2CCCc3ccccc32)cc1 (some centres not stated)	12.8%	-0.8%	.	.
50	Cc1ccccc1N1CCN(Cc2c[nH]c3ccccc23)CC1	3.5%	-3.6%	-11.3	15.5%
51	COc1ccc(CN=C(NS(=O)(=O)c2cccs2)SC)cc1	3.5%	2.3%	0.4	-3.5%
52	Cc1ccc(-c2nc(C3CCCN(S(=O)(=O)c4ccc(C)cc4)C3)no2)cc1 (configuration not stated)	-10.1%	-1.5%	0.3	-2.2%
53	O=C(Cc1ccccc1[N+](=O)[O-])NCc1ccc(Cl)cc1	6.4%	-0.5%	1.8	-66.7%
54	CN(C)C(=O)c1ccc(=O)n(Cc2ccc(Cl)cc2Cl)c1	-8.7%	-4.9%	.	-14.9%
55	O=C(CCc1ccc(S(=O)(=O)NCc2ccccc2)cc1)NCc1ccco1	-13.6%	-0.5%	1.6	-1.5%
56	FC(F)(F)c1cccc(NC(=S)N2CCCCCC2)c1	13.8%	5.6%	0.5	-11.2%
57	O=C(Nc1cccc(-n2cccn2)c1)C1CCCN(Cc2cccc(F)c2F)C1 (configuration not stated)	-8.0%	0.7%	.	5.1%
58	CCc1nn(C(C)C(=O)NC2CCCCCC2)c(=O)c2cc3occc3n12 (configuration not stated)	-6.9%	-0.7%	.	-7.2%
59	Cc1cc(C)cc(NC(=O)C(Sc2nnc(C)c(=O)[nH]2)c2ccccc2)c1 (configuration not stated)	6.5%	0.4%	0.3	-12.6%
60	C=CCn1c(=O)c2ccc(C(=O)NCc3ccccc3)cc2n(Cc2ccccc2Cl)c1=O	3.9%	-0.7%	1.3	-4.3%

# 11 entries from above, with the structure last.
cpd	Rango dissoc inh	Rango complex inh	GLA inh pH 4.5	miR-21 FLuc	Structure
45	9.2%	0.1%	0.7	-12.4%	Brc1ccc(CSc2nccn2-c2ccccc2)cc1
46	9.1%	4.3%	.	.	Cc1ccc(NC(=O)CN2CCN(Cc3ccccc3)CC2)cc1Cl
47	0.8%	-0.3%	.	12.1%	Cc1ccc(CNC(=O)C(OC(=O)c2cccs2)C(C)C)cc1 (configuration not stated)
48	0.4%	2.1%	6.3	7.1%	CN1CCN(c2ccc(NC(=O)c3ccc(C(F)(F)F)cc3)cn2)CC1
49	12.8%	-0.8%	.	.	CC(=O)Nc1ccc(S(=O)(=O)N[C@@H](C)C(=O)NC2CCCc3ccccc32)cc1 (some centres not stated)
50	3.5%	-3.6%	-11.3	15.5%	Cc1ccccc1N1CCN(Cc2c[nH]c3ccccc23)CC1
51	3.5%	2.3%	0.4	-3.5%	COc1ccc(CN=C(NS(=O)(=O)c2cccs2)SC)cc1
52	-10.1%	-1.5%	0.3	-2.2%	Cc1ccc(-c2nc(C3CCCN(S(=O)(=O)c4ccc(C)cc4)C3)no2)cc1 (configuration not stated)
53	6.4%	-0.5%	1.8	-66.7%	O=C(Cc1ccccc1[N+](=O)[O-])NCc1ccc(Cl)cc1
54	-8.7%	-4.9%	.	-14.9%	CN(C)C(=O)c1ccc(=O)n(Cc2ccc(Cl)cc2Cl)c1
55	-13.6%	-0.5%	1.6	-1.5%	O=C(CCc1ccc(S(=O)(=O)NCc2ccccc2)cc1)NCc1ccco1

# Further results
nr	mol	Rango dissoc inh	Rango complex inh	GLA inh pH 4.5	miR-21 FLuc
61	Cc1ccccc1NC(=O)Cn1nnc(-c2ccc(CN3CCC(C)CC3)cc2)n1	-5.6%	0.4%	3.1	-2.3%
62	COc1ccccc1NS(=O)(=O)c1cccc(NC(=S)NCCN2CCOCC2)c1	9.8%	-0.6%	4.7	-5.9%
63	CC(C)N(C(=O)CSc1nnc(NC(=O)c2ccco2)s1)C(C)C	-3.3%	3.7%	-0.3	-0.5%
64	O=C(NCc1ccc(Cl)cc1)C(=O)NCC1CCCN1S(=O)(=O)c1cccs1 (configuration not stated)	-8.8%	-1.9%	.	.
65	C/C(=N\NC(=O)CCc1ccccc1)C1C(=O)c2ccccc2C1=O	10.2%	-0.3%	-3.1	6.3%
66	CCN(CC)S(=O)(=O)c1ccc2c(c1)c(=O)c(C(=O)N1CCN(c3ccccc3)CC1)cn2C	9.0%	1.5%	-8.2	-3.5%
67	O=C(Nc1ccccc1F)c1cc(S(=O)(=O)N2CCCCC2)cs1	-1.9%	2.9%	-4.2	-6.2%
68	COc1ccc(CCNC(=O)C2CCN(S(=O)(=O)c3ccc(OC)cc3)CC2)cc1	-6.8%	-0.4%	.	-0.3%
69	CCN(CC)CCN1C(=O)c2ccccc2NC1c1cccc(F)c1 (configuration not stated)	-11.9%	-1.8%	7.1	-8.0%
70	C=CCn1c(SCc2ccc(C(=O)OC)cc2)nnc1-c1sc(N)nc1C	-10.6%	3.4%	6.3	0.5%
71	CCOCCCNC(=O)C1CC(=O)N(CCc2ccccc2)C1 (configuration not stated)	?	0.2%	.	4.1%
72	Cc1csc2ncc(C(=O)Nc3ccc4c(c3)OCCO4)c(=O)n12	-8.3%	-2.9%	9.8	-68.8%
73	CCN(CC(=O)Nc1c(F)cccc1F)C(=O)CNC(=O)c1sc2ccccc2c1Cl	0.7%	-4.1%	.	.

# Single entries from the entries so far.
# no. 9 in Rango dissoc inh is listed with 34.9%
# no. 11 in miR-21 FLuc is listed with -3.1%
